CtBP-E1A inh: inhibitors of CtBP/E1A interaction. AlphaScreen GST-E1A/His-CtBP binding, 1536-well; hits give low values; control for the full effect not named in the record. activity change, % (test concentration not listed). actives 0.49% (n = 340,000); in the data active means activity change below about -65%; inconclusive means about -30% to -65%; inactive means above about -30%; further: on the % scale 0 is the no-effect control and ±100 the full control effect; compound concentration not given in the record
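AlphaScreen with 125 nM GST-E1A and 125 nM His-CtBP (5X stocks) in Tris pH 8.0, 300 mM NaCl, BSA, Tween 20, TCEP. Compounds preincubated 2 h at 37 deg C, then glutathione donor/nickel acceptor beads added for 1 h at 37 deg C in dark.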
Six1-Eya2 blk: Six1/Eya2 interaction inhibition | Q15475+O00167 | AlphaScreen GST-Six1/His-Eya2 binding, biochemical; hits give low values; control for the full effect not named in the record | activity change, % (concentration not given with the values) | actives 0.56% (n = 360,000) | AID 651725; in the data active = activity change below about -65%; inconclusive = about -30% to -65%; inactive = above about -30%; further: on the % scale 0 is the no-effect control and ±100 the full control effect
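AlphaScreen luminescence read after one hour at 37 °C in darkness. Pin-transferred compounds met GST-Six1 and His-Eya2 protein (5X stock 250 nM/500 nM) plus glutathione donor and Ni-chelate acceptor beads (5X, 50 ug/mL).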
D2 agonist: activates the human D2 dopamine receptor. activation, % (concentration not given with the values). P14416. DiscoveRx PathHunter D2 beta-arrestin, luminescence, 90 min; 100% = 57 uM dopamine signal. actives 0.084% (n = 360,000); in the data active = activation above about 40%; inconclusive = about 15% to 40%; inactive = below about 15%; further: compound concentration not given in the record; the text of the record calls up to 30% inactive
Target sequence (P14416 whole entry, looked up): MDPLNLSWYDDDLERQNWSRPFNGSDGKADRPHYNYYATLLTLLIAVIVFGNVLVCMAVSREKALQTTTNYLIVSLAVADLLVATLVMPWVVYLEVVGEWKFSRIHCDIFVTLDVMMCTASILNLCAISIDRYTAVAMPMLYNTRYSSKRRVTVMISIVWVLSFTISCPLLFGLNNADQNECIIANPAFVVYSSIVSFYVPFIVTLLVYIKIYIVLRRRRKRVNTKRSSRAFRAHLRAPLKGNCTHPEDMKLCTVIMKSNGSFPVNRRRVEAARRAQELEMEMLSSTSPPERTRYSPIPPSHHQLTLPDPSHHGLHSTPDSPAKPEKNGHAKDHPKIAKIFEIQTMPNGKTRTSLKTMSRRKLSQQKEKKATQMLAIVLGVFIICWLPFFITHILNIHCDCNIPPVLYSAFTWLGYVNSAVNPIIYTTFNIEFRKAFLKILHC
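DiscoveRx PathHunter D2 beta-arrestin cells (2,100/well) attached overnight, then compound-stimulated 90 min at 37 C in HBSS/10 mM HEPES/0.1% Tween-20 buffer; beta-galactosidase complementation read by luminescence after 1 h at ambient temperature. Dopamine 57 uM final (EC100) as control.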
D2 PAM: human D2 receptor positive allosteric modulation. P14416. DiscoveRx D2 beta-arrestin cells, luminescence, 90 min; 100% = 57 uM dopamine signal. potentiation, % (test concentration not listed). actives 0.23% (n = 360,000). AID 624464; active = potentiation of 50% or more; inconclusive = 30% to 50%; inactive = 30% or less;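 further: compound concentration not given in the record; tested on top of an EC20 dose of dopamine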
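D2 cells co-treated with compound plus 50 nM dopamine (EC20) for 90 min at 37 deg C to detect potentiation. Beta-arrestin recruitment was read as enzyme-fragment luminescence after 1 h at ambient temperature. Full response was set by 57 uM dopamine.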
gsp antag: gsp mutant antagonism; gsp-mutant cells, cAMP HTRF, 30 min; control for the full effect not named in the record; Potency, µM (series often up to 76.9 µM), for the others: top-dose activity change, negative = inhibition, hits mostly inhibitors; actives 0.4% (n = 340,000); active = falling curve of any shape with a large fitted effect; inconclusive = falling curve, mostly with a smaller effect; inactive = flat or rising curve; cell line not stated here;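 further: intracellular cAMP measured with PDE inhibitor Ro 20-1724 present during compound exposure; potency means the concentration at half of the fitted maximal effect; on the % scale 0 is the no-effect control and ±100 the full control effect; nearly all actives have a fitted effect of over 65% in size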
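G418-selected cells were plated in DMEM/10% FBS for 16-24 h at 37C, then treated with compounds plus the PDE inhibitor […] (300 uM solution added) for 30 min at 37C. Intracellular cAMP was measured by HTRF after 30 min lysis at room temperature.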
gsp ag: agonists of gsp mutant (McCune-Albright syndrome) | Potency, µM (highest dose often 76.9 µM), for inactives: at the top dose activation (cAMP increase), usual class: activators | actives 0.13% (n = 340,000) | AID 624287 | gsp mutant cells, cAMP HTRF, 30 min; control for the full effect not named in the record; active = well fitted activation curve with a large enough effect; inconclusive = small, poorly fitted or top-dose-only effect, or another doubt; inactive = no such curve, though single readings can be large or run the other way; cell line not stated here;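 further: phosphodiesterase inhibitor Ro 20-1724 added with compounds to block cAMP breakdown; potency means the concentration at half of the fitted maximal effect; nearly all actives have a fitted effect of over 60% in size; about a fifth of the inactives were tested at one dose only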
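Cells stably selected in G418 were plated at 2000/well, grown 16-24 hr, then given compounds in DMSO with the PDE inhibitor […] (300 uM solution added) for 30 min at 37C; cAMP was read by HTRF.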
The depositor's hits bear a star; ? = inconclusive; · = not tested or not shown; [ ] = another dose, or the depositor's remark.

SMILES	CtBP-E1A inh	Six1-Eya2 blk	D2 agonist	D2 PAM	gsp antag	gsp ag
CCc1cccc(NS(=O)(=O)c2c(C)[nH]c(=O)[nH]c2=O)c1	3	9	0.3	-4	8%	0%
O=[N+]([O-])c1ccc2c(c1)c(-c1ccccc1)nc1nncn12	?	?	3.3	8	-17%	29%[15.4 µM]
O=C(CC1Oc2ccccc2NC1=O)NCCCN1CCCC1=O (centres undefined)	1	-1	-4.2	-6	4%	5%
N#Cc1ccccc1OCC(=O)Nc1ccc2c(c1)OCCCO2	-2	3	-2.6	0	-5%	12%[15.4 µM]
CC(C)NC(=O)CN1CCN(Cc2nc(C(c3ccccc3)c3ccccc3)no2)CC1	3	-3	1.7	1	3%	-12%[15.4 µM]
CCOCCCNC(=O)N1CCOCC1	9	4	-0.5	-4	2%	-31%[inhibitor]
Nc1nc(N2CCN(c3ccc(Cl)cc3)CC2)n[nH]1	·	-2	3.2	-5	-3%	13%[15.4 µM]
CN1CCC[C@@H]1CCNC(=O)c1cccc2c1C(=O)c1ccc(N3CCCC3)cc1S2(=O)=O	-3	2	-3.3	-28	4%	-20%
COc1ccc(Cl)cc1C(=O)Nc1cccnc1	-5	-1	1.2	-2	2%	-20%
NC(=O)c1ccc(-n2c(CCC(=O)O)ccc2-c2cccs2)cc1	-4	-3	0.9	-6	1%	-6%
CCOC(=O)c1cc(NC(=O)C2C3C=CC(O3)C2C(=O)O)cc(C(=O)OCC)c1 (centres undefined)	0	3	6.7	8	-16%	?
CCCS(=O)(=O)NC(=O)C1(C)CCCN(C(=O)c2cc(OC)c(OC)c(OC)c2)C1 (centres undefined)	10	6	-3.6	-6	·	·
O=C(CN1C(=O)/C(=C2\SC(=S)N(CCS(=O)(=O)O)C2=O)c2ccccc21)Nc1cccc(Br)c1	-12	-22	6.3	-7	9%	-31%[inhibitor]
CNc1c(NS(=O)(=O)c2ccc(C3CCCCC3)cc2)c(=O)oc2ccccc12	0	-6	-2.4	-2	4%	-5%
OCCN(Cc1ccccc1)C(=S)Nc1ccc(F)cc1	8	6	-0.1	0	10%	-26%
COc1cccc(NC(=O)CNC(=O)c2ccc([N+](=O)[O-])cc2)c1	2	-2	3.2	0	-2%	-12%[15.4 µM]
CCN(Cc1ccccc1)C(=O)C1CCC(CNc2c(N3CCOCC3)c(=O)c2=O)CC1 (centres undefined)	-8	-9	-1.2	-9	-4%	-22%
Cc1ccc(S(=O)(=O)N2C[C@H]3C(=O)C[C@@H](c4ccccc4)N(S(=O)(=O)c4ccc(C)cc4)[C@H]3C[C@H]2c2cccc(Cl)c2)cc1	-4	2	-8.6	0	·	-52%[inhibitor]
Cc1noc(C)c1C(=O)OC(C)C(=O)Nc1ccc(S(=O)(=O)NC(C)C)cc1 (centres undefined)	-23	-6	-1.6	-14	2%	-14%
COc1ccccc1-c1noc(CCC(=O)Nc2ccccc2Cl)n1	0	-1	2.0	-14	-5%	-33%[inhibitor]
CC(C)c1ccc(CN2C(=O)NC3(CCCCCC3)C2=O)cc1	6	1	-4.2	-5	1%	5%[15.4 µM]
O=NN(CCCl)C(=O)NCCCl	7	2	-3.5	5	4%	·
CCOC(=O)c1c(-c2ccc(OC)cc2)csc1/N=C/C1C(=O)CCCC1=O	-1	-3	3.4	10	-7%	-20%
COc1ccc(/C=N/NC(N)=S)cc1OC(=O)c1cccc2ccccc12	-3	0	-0.3	-3	-10%	-3%
O=C(C/C=N\OCc1ccc([N+](=O)[O-])cc1)Nc1ccc(F)cc1F	5	4	2.9	-4	10%	-7%[15.4 µM]

3 entries from above, arranged by the value under gsp ag, high to low:
canonical_smiles	gsp ag
O=C(CC1Oc2ccccc2NC1=O)NCCCN1CCCC1=O (centres undefined)	5%
CNc1c(NS(=O)(=O)c2ccc(C3CCCCC3)cc2)c(=O)oc2ccccc12	-5%
Cc1noc(C)c1C(=O)OC(C)C(=O)Nc1ccc(S(=O)(=O)NC(C)C)cc1 (centres undefined)	-14%

(cont.)
SMILES	CtBP-E1A inh	Six1-Eya2 blk	D2 agonist	D2 PAM	gsp antag	gsp ag
COc1ccc(CCNC(=O)CSc2nc(O)c(CC(C)C)c(=O)[nH]2)cc1OC	3	-15	2.1	-29	3%	0%
Cc1ccc(NC(=O)C2CCCN(S(=O)(=O)c3cccs3)C2)cc1 (centres undefined)	1	8	0.4	9	-8%	1%
COC(=O)c1ccccc1S(=O)(=O)N(CCCN1CCOCC1)Cc1cccs1	0	5	-2.4	-23	3%	15%
COc1ccc2c(c1)C(c1ccccc1)=NNC(c1ccco1)=N2	9	-20	-0.6	-8	1%	-9%
CC(C(=O)NCc1cccs1)N1C(=O)c2ccccc2C1=O (centres undefined)	6	-1	-2.8	-1	2%	-6%
CNC(=S)N/N=C/c1ccc(OCC(=O)Nc2c(C)cc(C)cc2C)c(OC)c1	10	14	-1.4	-7	10%	23%
O=C(Nc1c2c(nn1-c1ccc([N+](=O)[O-])cc1)CS(=O)(=O)C2)c1ccccc1F	1	0	-2.7	4	-8%	-69%[inhibitor]
Cc1ccc(CSc2nc3c(c(=O)[nH]c(=O)n3C)n2CCC(C)C)cc1	2	1	-7.3	-5	-7%	?
CC(C)NC(=O)CN(CCc1ccccc1)S(C)(=O)=O	10	-1	0.9	-21	2%	11%
Nc1c(C(=O)c2ccccc2)oc2ccc([N+](=O)[O-])cc12	-6	-7	0.2	-9	-8%	-3%
Cc1ccc(-c2nnc(-c3ccc(NC(=O)Cc4cccs4)cc3)o2)cc1	0	-1	-2.7	0	13%	5%
Cc1cc(OCc2cc(C(=O)N(C)CCOc3ccccc3)no2)cc(C)c1Cl	28	19	3.9	1	-3%	-15%
C=CCN1c2ccccc2[C@]23C[C@@H](C(=O)OC)N(C(=O)c4cc(C)oc4C)C2=NC(C(=O)OC)=C(C(=O)OC)[C@H]13	·	-22	-1.2	-1	-8%	-4%
COc1ccc(/C=C2\Oc3cc(OCC(=O)N4CCC[C@H]4C(=O)O)ccc3C2=O)c(OC)c1OC	2	0	-2.0	-4	-4%	-21%
CCN(CC)S(=O)(=O)c1ccc(/C=C/C(=O)OCC(=O)Nc2cccc3ccccc23)cc1	-3	-13	-5.9	3	-4%	4%
C=CC[C@H]1C=C[C@@H](C(C(=O)OC)C(=O)OC)CN1C(C)=O	-26	-17	-1.9	-3	-2%	·
OC(CCCC(O)c1ccccc1)c1ccccc1 (centres undefined)	6	6	-1.1	7	-4%	-4%[15.4 µM]
O=C1N=C(N2CCCC2)S/C1=C\c1cccc(Br)c1	3	0	-2.2	10	-13%	-14%
CCOC(=O)c1ccc(NC(=S)N2CCN(CCO)CC2)cc1	10	2	-3.9	-8	13%	3%[15.4 µM]
NCCSc1c(-c2ccc(Cl)cc2)[nH]c2ccccc12	0	-10	-2.6	-19	-9%	13%
CCN(CC(=O)NCc1cccs1)c1nnnn1-c1ccccc1	8	3	-3.4	2	0%	1%
Cc1cccc(C(=O)Nc2ccc3ccccc3c2)c1	·	2	-6.1	-36	?	-28%
CC1=C(C(=O)N2CCCCCC2)CC(CC(=O)NCC2CCCCC2)C(=O)N1Cc1ccccc1 (centres undefined)	6	2	-4.3	-9	·	·
COc1cc(/C=N/NC(=S)Nc2cccc(S(=O)(=O)N(C)C)c2)cc(OC)c1O	5	-21	5.9	10	5%	17%
CC1=CC(C)C(/C=N/N=C(N)N)C(C)C1 (centres undefined)	-1	16	-2.9	-6	5%	14%[15.4 µM]
Cc1ccc(S(=O)(=O)N(C)CCCC(=O)NC(C)(C)C)cc1	6	5	0.3	-5	5%	33%[15.4 µM]
Cc1ccccc1NS(=O)(=O)c1ccc2c3c(cccc13)C(=O)N2C	7	-10	0.9	-9	-11%	6%[15.4 µM]
CSc1ccccc1C(=O)Nc1ccc(C)c(C)c1	4	2	10	-7	4%	8%
C[C@H](CO)N1C[C@H](C)[C@@H](CN(C)S(C)(=O)=O)Oc2ccc(NC(=O)Nc3ccc4c(c3)OCO4)cc2C1=O	0	12	8.5	0	11%	?
NS(=O)(=O)c1ccc(NC(=S)Nc2ccc(Br)c(Cl)c2)cc1	10	-10	3.5	-4	2%	-43%
CC1(C(=O)OCC(=O)NCCNC(=O)COC(=O)C2(C)CC2(Cl)Cl)CC1(Cl)Cl (centres undefined)	16	1	-3.4	-8	5%	-3%
CC1CN(C(=O)CCC(=O)NCCc2ccccc2)c2ccccc2O1 (centres undefined)	5	4	-3.4	-11	7%	?
CCOC(=O)C1(C(=O)OCC)NC(=O)CC1CC (centres undefined)	8	-4	-1.5	-11	9%	-13%[15.4 µM]
CCc1ccc(NC(=O)CCc2nnc3ccc(N4CCC5(CC4)OCCO5)nn23)cc1	-4	0	-3.8	-10	-15%	?
COC(=O)c1ccc(N2C(=O)CC(N3CCOCC3)C2=O)cc1 (centres undefined)	-2	3	-0.6	-6	12%	?
CC(=O)C1C(=O)c2c(cccc2[N+](=O)[O-])C1=Nc1ccc(S(N)(=O)=O)cc1 (centres undefined)	-8	-4	2.5	3	-8%	18%
CN(C(=O)CCNC(=O)Cn1ccc2ccccc2c1=O)c1ccc(Br)cc1	-2	8	2.6	-1	-5%	-5%
COC(=O)c1sccc1NC(=O)Cn1nnc(-c2ccc(C)cc2)n1	9	4	0.7	-7	-18%	3%
COc1ccc(-c2nnc(SCC(=O)N/N=C/c3ccccc3C(=O)O)n2-c2ccccc2)cc1	·	-14	-7.0	-27	-7%	?
COc1ccc(/C=C/C(=O)Oc2cccc(/C=N/NC(=O)Cc3ccc(Br)cc3)c2)cc1	-10	-10	-2.5	-11	-2%	?
O=C(NCc1ccc2c(c1)OCO2)C1CCCN1C(=O)Nc1ccc(Cl)cc1 (centres undefined)	-3	0	1.6	-9	0%	-21%
CCOc1ccc(S(=O)(=O)N2CCC(C(=O)N3CCN(C)CC3)CC2)cc1Cl	6	2	0.2	0	10%	-6%[15.4 µM]
CCOC(=O)c1ccc(NC(=O)CSc2nnc(NC(=O)c3ccc(S(=O)(=O)N4CCOCC4)cc3)s2)cc1	21	17	-3.5	-2	6%	-7%
O=C(NC(=S)NNC(=O)c1cccs1)c1ccco1	-4	1	-1.7	-12	7%	18%
CN(C)c1nc(N)c(C#N)c(C#N)c1C#N	-13	-2	-6.7	-19	0%	-24%
CCOc1ccc(/C=C/C(=O)Nc2ccc(N3CCOCC3)cc2)cc1	-4	-7	0.5	2	-1%	17%
Cc1ccccc1OCc1nc(-c2ccc(NC(=O)c3ccco3)cc2)no1	-6	7	7.1	6	-13%	-14%
COC(=O)c1c(C(=O)OC)c(C)n(Cc2ccco2)c1C	-1	-5	0.2	-13	11%	-19%
Nc1ccc(S(=O)(=O)Nc2nc(-c3ccccc3)cc(-c3ccccc3O)n2)cc1	-5	-21	-3.4	-17	·	-7%
